Lassa entry inh = inhibitors of Lassa virus binding or cell entry | Lassa virus pseudotype entry inhibition, cell reporter; control for the full effect not named in the record | Potency, µM (series often up to 37.9 µM), for the others: at the highest dose activity change, negative = inhibition, actives largely listed as inhibitors | hit rate 1.2% among 300,000; active means well fitted inhibition curve with a large enough effect; inconclusive means small, poorly fitted or top-dose-only effect, or effect the other way; inactive means flat fitted curve, though single readings scatter; tested in HEK293 cells; also: % is scaled to controls: 0 for no effect and ±100 for the full control effect; nearly all actives have a fitted effect of over 50% in size; luciferase read-out
2A StopGo = lowers the luciferase signal of an FMDV 2A StopGo reporter; Potency, µM (doses to about 57.9 µM), without a hit: top-dose signal change, negative = less light; hit rate 1.2% among 410,000; human cells with a luciferase reporter of 2A StopGo recoding; control for the full effect not named in the record; AID 1159524; active = well fitted falling curve with a large enough effect; inconclusive = small, poorly fitted or top-dose-only effect; inactive = no such curve, though single readings can be large or run the other way; tested in HEK293T cells; also: % is scaled to controls: 0 for no effect and ±100 for the full control effect; nearly all actives have a fitted effect of over 45% in size; luciferase light after 4 h
Cruzain noTriton = inhibitors of Trypanosoma cruzi cruzain without detergent; purified cruzain, Z-FR-AMC fluorescence, no detergent; P25779; hit rate 2.3% among 200,000; Potency, µM, for the others: max response, negative = inhibition, usual class: inhibitors; AID 1476; active = well fitted curve in the direction sought with a large enough effect; inconclusive = small, poorly fitted or top-dose-only effect, or another doubt; inactive = no such curve, though single readings can be large; an effect the other way counts as inactive or inconclusive;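 also: plate controls were enzyme without inhibitor for no effect and buffer without enzyme for full effect; nearly all actives have a fitted effect of over 40% in size; top concentration of the series not given in the record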
Target sequence (P25779 123-467 limits assumed): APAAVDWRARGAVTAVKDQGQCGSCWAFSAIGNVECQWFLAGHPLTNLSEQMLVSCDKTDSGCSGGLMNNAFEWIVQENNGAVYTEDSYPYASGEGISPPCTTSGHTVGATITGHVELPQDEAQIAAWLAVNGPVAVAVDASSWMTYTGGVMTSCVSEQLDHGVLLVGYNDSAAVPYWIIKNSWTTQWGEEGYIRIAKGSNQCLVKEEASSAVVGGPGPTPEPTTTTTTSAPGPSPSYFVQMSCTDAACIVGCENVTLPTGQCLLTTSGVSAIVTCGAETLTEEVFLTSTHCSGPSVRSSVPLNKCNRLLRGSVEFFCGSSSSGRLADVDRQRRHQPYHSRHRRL
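Detergent-free condition (0.00005% Triton X-100) in acetate buffer pH 5.5 with DTT. 1.5 nM enzyme and compound were pre-mixed 15 min, then 2 uM Z-FR-AMC substrate added; reaction progress from fluorescence change between first and third reads (60 s).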
NS1 function inh = blocks influenza NS1 protein function; hit rate 0.4% among 270,000; AID 2326; S. cerevisiae slowed by influenza A NS1, growth recovery by OD600; Potency, µM (highest dose often 46.1 µM), inactives show at the top dose activity, positive = more growth; also: actives are rising curves; nearly all actives have a fitted effect of over 50% in size
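OD600 was taken as the measure of yeast growth restored by compound in an NS1-expressing S. cerevisiae strain. Cells had been washed out of glucose medium and diluted 1:100 into galactose -URA medium, pH 6.0.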
SARS PLP yeast = blocks SARS-CoV papain-like protease in a yeast assay; S. cerevisiae expressing SARS-CoV PLpro, growth rescue; control for the full effect not named in the record; Potency, µM (doses to about 32.9 µM), for inactives: top-dose activity, positive = growth rescue; hit rate 0.19% among 330,000; AID 485353; also: 0% is about no effect; nearly all actives have a fitted effect of over 55% in size; growth read by luminescence after 48 h
Cruzain Triton = inhibitors of Trypanosoma cruzi cruzain with detergent; Potency, µM, inactives show max response, negative = inhibition, hits mostly inhibitors; purified cruzain, Z-FR-AMC fluorescence, 0.01% Triton; AID 1478; hit rate 0.43% among 200,000; active = well fitted curve in the direction sought with a large enough effect; inconclusive = small, poorly fitted or top-dose-only effect, or another doubt; inactive = no such curve, though single readings can be large; an effect the other way counts as inactive or inconclusive;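 also: plate controls were neutral wells for no effect and buffer without enzyme for full effect; nearly all actives have a fitted effect of over 40% in size; top concentration of the series not given in the record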
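Compounds were screened in titration against cruzain (1.5 nM) with 0.01% Triton X-100 to counter colloidal aggregation. Activity was the AMC fluorescence increase over 60 s after adding 2 uM Z-FR-AMC at pH 5.5.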
MARV entry inh = Marburg virus entry inhibition | Marburg virus pseudotyped entry inhibition, cell reporter; control for the full effect not named in the record; about a third of the inactives were read at about 46 µM | Potency, µM (doses to about 37.8 µM), for inactives: at the highest dose activity change, negative = inhibition, hits mostly inhibitors | hit rate 1.8% among 300,000 | AID 540276; active = well fitted inhibition curve with a large enough effect; inconclusive = small, poorly fitted or top-dose-only effect, or effect the other way; inactive = flat fitted curve, though single readings scatter; tested in HEK293 cells; about a fifth of its hits are not listed in these tables; also: % is scaled to controls: 0 for no effect and ±100 for the full control effect; luciferase read-out
RE007 growth inh = less growth of the S. pombe RE007 Vpr strain; hit rate 0.21% among 360,000; Potency, µM (series often up to 92.2 µM), without a hit: at the highest dose activity change, negative = less growth; S. pombe RE007 Vpr strain, BacTiter-Glo ATP luminescence, 24 h; control for the full effect not named in the record; active = well fitted falling curve with a large enough effect; inconclusive = small, poorly fitted or top-dose-only effect; inactive = no such curve, though single readings can be large or run the other way;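 also: % is scaled to controls: 0 for no effect and ±100 for the full control effect; nearly all actives have a fitted effect of over 50% in size; the assay follows cell death caused by Vpr and the record does not say whether a fall means rescue or toxicity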
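Fission yeast RE007 carrying one integrated HIV-1 vpr copy, seeded at OD 0.01 in PMG+AL medium with 23 nL pinned compound. Grown 24 h at 30 degrees; viability read by BacTiter-Glo luminescence after 5 min.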
An asterisk follows results filed as active; ? = inconclusive; · = no result given; & = joins results of further samples; [ ] = another dose, or the depositor's remark. Unless noted, calls follow the shape of the dose curve; as a rule, active means well fitted rising curve with a large enough effect; inconclusive means small, poorly fitted or top-dose-only effect; inactive means no such curve, though single readings can be large or run the other way. Potency is read from the fitted curve at half-maximal effect.

1. NC(=O)C1CCN(C(=O)/C=C/c2cc(Br)ccc2F)CC1
2. COc1ccc2c(C)cc(SCC(=O)Nc3ncc(Cl)cc3Cl)nc2c1
3. O=C(Nc1cccn(Cc2c(Cl)cccc2Cl)c1=O)c1ccc(Cl)cc1
4. CCOC(=O)c1ccc(N=NN(C)C)cc1
5. CCOC(=O)C1=C(COC(=O)c2cc(S(=O)(=O)N3CCOCC3)ccc2F)NC(=O)NC1C (stereo not given)
6. CCCn1c(SCC(=O)NC2CCCCC2)nnc1-c1cccnc1
assay / entry,1,2,3,4,5,6
Lassa entry inh,3%,10%,-26%,7%,8%,1%[46.1 µM]
2A StopGo,26%,-17%,-20%,56%[activator],?,6%
Cruzain noTriton,·,6%,?,·,·,·
NS1 function inh,2%,?,13%,-28%,·,4%
SARS PLP yeast,0%,-2%,-8%,0%,·,2%
Cruzain Triton,·,-4.4%,-2.9%,·,·,·
MARV entry inh,7%[46.1 µM],?,-27%,?,?,0%[46.1 µM]
RE007 growth inh,-10%,·,-4%,2%,15%,2%

7. COc1ccc(OC)c(/C=N/NC(=O)c2cc[n+](CC(=O)c3ccccc3)cc2)c1
8. COc1ccc(-n2cc(CNCCc3ncc(C)[nH]3)c(-c3ccccc3Cl)n2)cc1
9. CCOC(=O)c1c(NC(=O)COC(=O)c2cc(OC)c(OC)cc2[N+](=O)[O-])sc(C)c1CC
10. Cc1ccc(NS(=O)(=O)c2c(C)nc3sc(C)cn3c2=O)c(C)c1
11. Cc1ccc(N/C(N)=N/c2nc(CSc3nnc(N)s3)cc(=O)[nH]2)cc1
12. C=CCn1c(O)c(C(CC)=NCc2ccco2)c(=O)[nH]c1=O
assay / entry,7,8,9,10,11,12
Lassa entry inh,-4%,-10%[46.1 µM],0%,14%[46.1 µM],·,-25%
2A StopGo,·,-10%,0%,-20%,-15%,7%
Cruzain noTriton,-6%,·,-12%,-1%,·,·
NS1 function inh,13%,7%,-5%,·,-3%,2%
SARS PLP yeast,-5%,2%,-4%,·,0%,1%
Cruzain Triton,0.3%,·,-8.2%,-5.0%,·,·
MARV entry inh,14%,?,4%,·,-3%,15%
RE007 growth inh,7%,-15%,4%,·,4%,-9%

A stretch from the list above, for reference:
9. CCOC(=O)c1c(NC(=O)COC(=O)c2cc(OC)c(OC)cc2[N+](=O)[O-])sc(C)c1CC
10. Cc1ccc(NS(=O)(=O)c2c(C)nc3sc(C)cn3c2=O)c(C)c1
11. Cc1ccc(N/C(N)=N/c2nc(CSc3nnc(N)s3)cc(=O)[nH]2)cc1
12. C=CCn1c(O)c(C(CC)=NCc2ccco2)c(=O)[nH]c1=O
assay / entry,9,10,11,12
Lassa entry inh,0%,14%[46.1 µM],·,-25%
2A StopGo,0%,-20%,-15%,7%
Cruzain noTriton,-12%,-1%,·,·
NS1 function inh,-5%,·,-3%,2%
SARS PLP yeast,-4%,·,0%,1%
Cruzain Triton,-8.2%,-5.0%,·,·
MARV entry inh,4%,·,-3%,15%
RE007 growth inh,4%,·,4%,-9%

Next section
13. O=C(CN1C(=O)NC2(CCCCC2)C1=O)NC1CCCc2ccccc21 (stereo not given)
14. CC(CCc1ccccc1)NC(=O)c1nnc(Cc2ccc(Cl)cc2)o1 (stereo not given)
15. Cc1ccc2[nH]c(CN3CCC(CO)(CC4CCCCO4)CC3)c(C)c2c1 (stereo not given)
16. COc1ccc2nc3oc(C(=O)N4CC(C)CC(C)C4)cc3cc2c1 (stereo not given)
17. COc1ccc(C(C(=O)NC(C)(C)C)N(C(=O)CCC(=O)Nc2cc(C)on2)c2c(C)cccc2C)cc1 (stereo not given)
18. COc1ccc(C(=O)O/N=C/c2ccc(S(=O)c3ccc(Cl)cc3)nc2)cc1 (stereo not given)
assay / entry,13,14,15,16,17,18
Lassa entry inh,0%,·,5µM*,·,?,7%
2A StopGo,-16%,-23%,-20%,10%,1%,0%
Cruzain noTriton,-1%,6%,·,·,·,?
NS1 function inh,-4%,-8%,-3%,-42%,9%,4%
SARS PLP yeast,3%,3%,0%,-3%,-2%,5%
Cruzain Triton,0.6%,-3.9%,·,·,·,5.0%
MARV entry inh,?,·,?,·,?,-2%
RE007 growth inh,0%,1%,1%,-15%,-11%,26%

19. CCOC(=O)c1c(N)n(CC(C)NC(=O)C2CC2)c2nc3ccccc3nc12 (stereo not given)
20. CCOc1ccc(Nc2nc(C)c(NC(=O)c3cccc(F)c3)c(Nc3ccc(OCC)cc3)n2)cc1
21. CC(=O)C1C(=O)C=C(c2ccco2)CC1c1ccccc1 (stereo not given)
22. CC[C@H](C)[C@@H](NC(=O)O[C@@H]1C(=O)c2cc(OC)ccc2O[C@H]1c1ccc(OC)c(Br)c1)C(=O)OC
23. Cc1nc2cc(NC(=O)CS(=O)(=O)c3ccc(F)cc3)ccc2s1
24. O=C(O)c1cccnc1SCC(=O)N1CCCCCC1
assay / entry,19,20,21,22,23,24
Lassa entry inh,·,-5%[46.1 µM],-7%,-1%,?,3%
2A StopGo,·,?,?,-18%,32%[activator],-19%
Cruzain noTriton,-13%,9%,-7%,-10%&0%,·,-3%
NS1 function inh,-3%,·,5%,5%,·,-13%
SARS PLP yeast,0%,·,-2%,-8%,4%,-2%
Cruzain Triton,-19%,6.2%,-9.6%,-2.1%&-5.1%,·,8.7%
MARV entry inh,-3%,?,2%[46.1 µM],15%[14.2 µM],?,-4%
RE007 growth inh,·,·,-24%,10%,1%,3%

25. O=C(Nc1ccccc1N1CCOCC1)c1cc(F)cc(F)c1
26. COc1ccc(S(=O)(=O)N2CCN(CCC(=O)Nc3ccccc3F)CC2)cc1
27. Cc1ccc(C)c(S(=O)(=O)N2CCCCC2CCNC(=O)C(=O)NC2CCCC2)c1 (stereo not given)
28. COc1ccc(-c2nn(-c3ccccc3)cc2C(=O)O)cc1
29. Cc1cc([N+](=O)[O-])nn1CCCC(=O)NCc1ccc(F)cc1
30. O=C(c1ccc2c(c1)OCO2)N1CCN(C(=O)c2ccco2)CC1
assay / entry,25,26,27,28,29,30
Lassa entry inh,-2%[46.1 µM],-4%,-15%,·,-3%[46.1 µM],-11%
2A StopGo,-15%,·,?,-1%,1%,1%
Cruzain noTriton,·,3%,·,-20%,·,-6%
NS1 function inh,·,-5%,·,-68%,·,-2%
SARS PLP yeast,-2%,-7%,·,3%,0%,4%
Cruzain Triton,·,3.0%,·,-0.4%,·,2.3%
MARV entry inh,3%[46.1 µM],7%,?,·,6%[46.1 µM],1%
RE007 growth inh,-8%,12%,-5%,3%,-22%,13%

31. O=C(Nc1cccc(Cl)c1)N(Cc1nc2ccccc2c(=O)[nH]1)C1CCCC1
32. Cc1ccc(CN2CCN(/N=C/c3ccc(C)s3)CC2)c(C)c1
33. COc1ccc(-c2noc(CN(C)C(=O)c3ccco3)n2)cc1
34. COc1ccc(S(=O)(=O)n2ccc(-c3ccc4c(c3)CCC(C)(C)O4)n2)cc1
35. O=C(Nc1ccccc1C(F)(F)F)c1cccn(Cc2ccccc2)c1=O
36. O=C(CCC(=O)Nc1cccc([N+](=O)[O-])c1)N/N=C/c1cccs1
assay / entry,31,32,33,34,35,36
Lassa entry inh,?,3%,·,?,3%[46.1 µM],·
2A StopGo,-17%,-5%,0%,-20%,0%,12%
Cruzain noTriton,-9%,-3%,·,·,-1%,·
NS1 function inh,-2%,19%,1%,2%,·,9%
SARS PLP yeast,-6%,8%,1%,1%,·,2%
Cruzain Triton,7.0%,0.0%,·,·,-3.2%,·
MARV entry inh,?,-10%,?,?,·,·
RE007 growth inh,-3%,-7%,16%,-2%,·,5%

37. O=C(CN1C(=O)CNC1=O)Nc1cc(Cl)cc(Cl)c1
38. O=C(CSc1nnc(CCCN2C(=O)c3cccc4cccc(c34)C2=O)n1-c1ccccc1)NCCCN1CCOCC1
39. COc1ccc(N(CC(=O)NC2CCCC2)C(=O)CS(=O)CC(=O)Nc2ccc3c(c2)OCO3)cc1 (stereo not given)
40. Cc1ccc2nc(-c3ccc(C)s3)c(Nc3ccc4c(c3)OCCO4)n2c1
41. O=C(NCS(=O)(=O)c1ccccc1)c1ccccc1
42. N#Cc1ccsc1NC(=O)C1CC(=O)N(Cc2ccccc2)C1 (stereo not given)
assay / entry,37,38,39,40,41,42
Lassa entry inh,1%,12%&-3%,4%[46.1 µM],9%[46.1 µM],8%,6%
2A StopGo,1%,14%,19%,48%[activator],-21%,9%
Cruzain noTriton,·,5%,·,7%,6%,·
NS1 function inh,·,-10%,-3%,·,0%,·
SARS PLP yeast,-2%,27%,1%,·,-4%,-3%
Cruzain Triton,·,-12%,·,-3.5%,2.2%,·
MARV entry inh,17%,?,?,?,-1%[46.1 µM],5%[46.1 µM]
RE007 growth inh,-3%,-6%,10%,·,-1%,0%

43. COc1cc2c(c(OC)c1)C(=O)OC(C)CCCC(=O)CCCCC2 (stereo not given)
44. O=C(CSc1nc(=O)n2cc(Cl)ccc2n1)Nc1ccc2c(c1)OCO2
45. C[N+]1(CC2COC3(CCCCC3)O2)CCCCC1 (stereo not given)
46. Cc1ccc(NC(=S)N2CCN(Cc3ccccc3)CC2)c(C)c1
47. O=C(/C=C/c1ccc(Cl)cc1)c1cccnc1
48. CC(SCc1ccccc1)C(=O)Nc1ccc(F)cc1 (stereo not given)
49. O=C(CCN1CCOCC1)Nc1cc(C(=O)Nc2ccc(Cl)cc2)ccc1N1CC2CC(C1)c1cccc(=O)n1C2 (stereo not given)
assay / entry,43,44,45,46,47,48,49
Lassa entry inh,-21%,3%,-1%[46.1 µM],-20%,-2%,25%[46.1 µM],-7%[46.1 µM]
2A StopGo,?,0%,-23%,-6%,-7%,-15%,-12%
Cruzain noTriton,·,·,·,7%,7%,·,·
NS1 function inh,15%,·,2%,?,-118%,·,-19%
SARS PLP yeast,-10%,·,-6%,-8%,-45%,1%,-1%
Cruzain Triton,·,·,·,10%,-9.6%,·,·
MARV entry inh,?,1%,6%[46.1 µM],20%,?,-8%[46.1 µM],?
RE007 growth inh,5%,1%,1%,-12%,28µM*,-14%,1%
